GIV-Gai inh: inhibitors of GIV GBA-motif binding to rat Galpha-i3; P08753; Galpha-i3/FITC-GIV peptide fluorescence polarization, 90 min; stronger effect = lower value; scaled: aluminum fluoride 0%, vehicle 100%; percent of control (FP), % (concentration not given with the values); hit rate 0.42% among 210,000; AID 1224905;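 active = replicate mean at 85% of control or lower, very high polarization wells dropped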;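 note: wells of about 15 µL received 100 nL stock; the first replicate is given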
Target sequence (P08753 whole entry, looked up): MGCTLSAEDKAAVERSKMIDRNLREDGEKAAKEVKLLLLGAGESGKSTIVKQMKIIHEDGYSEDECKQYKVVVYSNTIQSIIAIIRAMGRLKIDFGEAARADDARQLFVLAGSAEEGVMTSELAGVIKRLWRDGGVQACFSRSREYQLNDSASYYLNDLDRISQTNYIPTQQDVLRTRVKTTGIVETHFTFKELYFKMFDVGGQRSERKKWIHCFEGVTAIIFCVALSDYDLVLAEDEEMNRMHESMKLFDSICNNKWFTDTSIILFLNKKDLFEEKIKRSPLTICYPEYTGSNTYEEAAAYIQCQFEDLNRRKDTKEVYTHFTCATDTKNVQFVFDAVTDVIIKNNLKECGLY
Starred values were filed as active, the others as inactive. The list is partial; the hit share may differ from the screen's.

GIV-Gai inh	structure
104	Cc1cccc(N2C(=O)N(CC(=O)c3ccc(F)cc3)c3ccccc3S2(=O)=O)c1
103	COc1ccccc1NC(=O)Cn1cnc2sc(C(=O)Nc3nc4ccc(Br)cc4s3)c(C)c2c1=O
109	O=c1oc2ccccc2cc1C1=Nn2c(nc3ccccc3c2=O)SC1
103	Cn1ccc(CN2CCC(N3CCCCC3)CC2)cc1=O
99	COCCn1c(CNC(=O)c2ccc(OC)c(OC)c2)nc2cccnc21
103	CCOC(=O)C1=CN(Cc2ccc(OC)cc2)C=C(C(=O)OCC)C1c1ccc(OC)cc1OC
107	CCC(C)NS(=O)(=O)c1c(C)nn(-c2ccc(-c3ccc(C)cc3)nn2)c1C (centres undefined)
119	COc1ccc(C(=O)Nc2cc(C(=O)Nc3ccc(OC)c(OC)c3)ccc2N2CC3CC(C2)c2cccc(=O)n2C3)cc1 (centres undefined)
102	O=C(NC1CC1)c1nc(Cn2c(=O)oc3ccc(Cl)cc32)no1
109	CN(CC(=O)Nc1cccc(Br)c1)S(=O)(=O)c1cc2c(cc1Cl)NC(=O)CO2
99	COCCCNC1=NCCNC12CCN(S(=O)(=O)c1ccccc1)CC2
105	COc1ccc(Cn2c(=S)[nH]c3cc(C(=O)NCCc4ccc(OC)c(OC)c4)ccc3c2=O)cc1
115	CCCCc1ccc(C2=N/C(=C\c3ccc(OC(C)=O)c(OC(C)=O)c3)C(=O)O2)cc1
108	Cn1c(=O)c2c(nc3n(Cc4ccccc4)c(-c4cccs4)cn23)n(C)c1=O
110	CCOc1ccc(NC(=O)CSc2nc3ccccc3c(=O)n2CCC(=O)N2CCN(c3ccccc3)CC2)cc1
105	CCOc1ccc(N(C)S(=O)(=O)c2ccc3[nH]cc(C(=O)N(CC)Cc4ccccc4)c(=O)c3c2)cc1
112	Fc1ccc(F)c(-c2nc(-c3ccc4c(c3)ncn4CCN3CCCC3)no2)c1
96	CCS(=O)(=O)N1CCCN(C(C)=O)CC1
106	Cc1ccc2oc(C(=O)Nc3sc4c(c3C(=O)NC3CCS(=O)(=O)C3)CCC4)c(C)c2c1 (centres undefined)
100	CCOCc1nc(N2CCOCC2)sc1C(=O)NCc1cccc(OC)c1
106	CCOC(=O)C1CCN(C(=O)c2sc3ncnc(N4CCC(C)CC4)c3c2C)CC1
105	CCCC(=O)N1c2ccccc2-c2c(ssc2=S)C1(C)C
101	O=C(O)CCN1C(=O)/C(=C2/C(=O)N(CC(=O)Nc3cccc(C(F)(F)F)c3)c3ccccc32)SC1=S
104	CCOCCCN1C(=O)CN(C2CCCCC2)C(=O)C1c1ccc(OC)c(OC)c1 (centres undefined)
101	Cc1cc(C)c(S(=O)(=O)N2CCC(c3noc(-c4ccc(F)cc4)n3)CC2)cc1C
100	COC(=O)Cc1nc(Nc2ccc(F)cc2F)c2c(C)c(C)sc2n1
105	CCCc1noc(Cn2ccnc2C)n1
108	COc1ccc(Cl)cc1NC(=O)c1cc(S(=O)(=O)NC2CCCCC2C)ccc1F (centres undefined)
111	COc1ccc(C2C3=C(Nc4c2c(=O)n(C)c(=O)n4C)c2ccccc2C3=O)cc1 (centres undefined)
104	COc1cc(C2C3=C(CCCC3=O)N(c3cc([N+](=O)[O-])ccc3C)C(=N)/C2=C(/O)c2ccccc2)cc(OC)c1OC (centres undefined)

For convenience, some entries already given.
GIV-Gai inh	structure
99	COCCCNC1=NCCNC12CCN(S(=O)(=O)c1ccccc1)CC2
105	COc1ccc(Cn2c(=S)[nH]c3cc(C(=O)NCCc4ccc(OC)c(OC)c4)ccc3c2=O)cc1
115	CCCCc1ccc(C2=N/C(=C\c3ccc(OC(C)=O)c(OC(C)=O)c3)C(=O)O2)cc1
108	Cn1c(=O)c2c(nc3n(Cc4ccccc4)c(-c4cccs4)cn23)n(C)c1=O
110	CCOc1ccc(NC(=O)CSc2nc3ccccc3c(=O)n2CCC(=O)N2CCN(c3ccccc3)CC2)cc1
105	CCOc1ccc(N(C)S(=O)(=O)c2ccc3[nH]cc(C(=O)N(CC)Cc4ccccc4)c(=O)c3c2)cc1
112	Fc1ccc(F)c(-c2nc(-c3ccc4c(c3)ncn4CCN3CCCC3)no2)c1
96	CCS(=O)(=O)N1CCCN(C(C)=O)CC1
106	Cc1ccc2oc(C(=O)Nc3sc4c(c3C(=O)NC3CCS(=O)(=O)C3)CCC4)c(C)c2c1 (centres undefined)
100	CCOCc1nc(N2CCOCC2)sc1C(=O)NCc1cccc(OC)c1
106	CCOC(=O)C1CCN(C(=O)c2sc3ncnc(N4CCC(C)CC4)c3c2C)CC1
105	CCCC(=O)N1c2ccccc2-c2c(ssc2=S)C1(C)C
101	O=C(O)CCN1C(=O)/C(=C2/C(=O)N(CC(=O)Nc3cccc(C(F)(F)F)c3)c3ccccc32)SC1=S
104	CCOCCCN1C(=O)CN(C2CCCCC2)C(=O)C1c1ccc(OC)c(OC)c1 (centres undefined)
101	Cc1cc(C)c(S(=O)(=O)N2CCC(c3noc(-c4ccc(F)cc4)n3)CC2)cc1C
100	COC(=O)Cc1nc(Nc2ccc(F)cc2F)c2c(C)c(C)sc2n1
105	CCCc1noc(Cn2ccnc2C)n1
108	COc1ccc(Cl)cc1NC(=O)c1cc(S(=O)(=O)NC2CCCCC2C)ccc1F (centres undefined)

New compounds follow.
GIV-Gai inh	structure
106	COC(=O)C1=C(C(=O)OC)SC(=C2C(=S)C(C)(C)N(C(=O)CCC3CCCCC3)c3cc(C)ccc32)S1
121	O=C(Nc1ccc(Cl)cc1)c1cc2c3c(c1)C1C=CCC1CN3CC1CC=CC21 (centres undefined)
105	C=CCn1c(N)c(C(=O)Nc2ccccc2OC)sc1=S
110	N#CC1=C(N)N(c2cc(C(F)(F)F)ccc2Cl)C2=C(C(=O)CCC2)C1c1cccnc1 (centres undefined)
102	Cc1sc(-c2cc(C(F)(F)F)[nH]n2)cc1S(=O)(=O)N1CCN(c2ccc(Cl)cc2)CC1
107	Cc1c(C(=O)Nc2ccc(F)cc2F)sc2ncn(CC(=O)Nc3cccc(C(F)(F)F)c3)c(=O)c12
113	Cn1c(=O)n(Cc2cccc(Cl)c2)c(=O)c2c1ncn2Cc1ccccc1
123	COc1cc(-c2nc(/C=N/c3nc4ccccc4n3C)c(O)o2)cc(OC)c1OC
100	Cc1nn(CC(=O)NCCc2c[nH]c3ccc(Cl)cc23)c(=O)c2c(C)n(-c3ccccc3)nc12
102	O=C(Cn1ncn2nc3c(c2c1=O)CCCC3)Nc1cccc(Cl)c1
111	O=C1/C(=C/c2ccc(-c3ccc([N+](=O)[O-])cc3)o2)C=C(c2ccccc2)N1c1ccc(F)cc1
111	CCOC(=O)c1c(CBr)n(CCBr)c2cc(Br)c(OC)cc12
105	COc1cc(C2C3CCCC=C3C(C#N)=C(N)C2(C#N)C#N)cc(OC)c1OC (centres undefined)
105	COc1cccc(N2C(=O)C(N3C(=O)c4ccc([N+](=O)[O-])cc4C3=O)C2c2cccc(F)c2)c1 (centres undefined)
104	CN(C)S(=O)(=O)c1ccc(-c2nnc(C(=O)NC3CCCCC3)o2)cc1
97	O=C(Nc1cc(Cl)ccc1Oc1ccc(Br)c2ccccc12)c1cc(Br)cc(Br)c1O
112	COc1cccc(N2C(=O)/C(=C/c3ccc(OC)c(Br)c3)C=C2c2ccccc2)c1
105	O=C(c1ccc(Cl)c(Cl)c1)N1CCc2c([nH]c3ccccc23)C1c1ccc([N+](=O)[O-])cc1 (centres undefined)
101	CNC(=O)c1nc(C(C)(C)NC(=O)c2ccco2)nc2c1OCO2
113	COc1ccccc1N1CCN(c2ncnc3c2cnn3-c2ccccc2)CC1
108	Cc1cc(C2CCCN2C(=O)c2cccc(F)c2)no1 (centres undefined)
113	Cc1ccc(-n2c(=S)sc3c(=O)n(-c4ccccc4F)c(=S)[nH]c32)cc1C
113	Cc1ccc(C2C3=C(CC(C)(C)CC3=O)NC3=C2C(=O)CC(C)(C)C3)cc1
103	Cc1ccc(Nc2ccc(N3CCN(C(=O)Cc4ccc(Cl)cc4)CC3)nn2)cc1
102	CCN1CCN(CC2CCN(S(=O)(=O)c3ccc(C#N)cc3)CC2)CC1
104	COc1ccccc1NC(=O)Nc1nnc(CC(=O)N2CCc3ccccc32)s1
118	COc1ccc(/C=C2\N=C(c3cc(Br)ccc3OC)OC2=O)cc1OC
105	O=C(CCc1nc(CSc2nnc(-c3ccccc3)o2)no1)Nc1ccc(F)cc1
108	COC(=O)COC(=O)c1cc2c(C)nn(-c3cccc(F)c3)c2s1
104	O=C(NCCN1CCOCC1)C1CCN(c2cncnc2N2CCCCC2)CC1
107	CCOC(=O)C1=C(C)NC2=C(C(=O)C(C(=O)OCC)C(c3ccc(OC)cc3)C2)C1c1ccc(N(CC)CC)cc1 (centres undefined)
219	CCOC(=O)C1=C(C)N=c2s/c(=C/c3cc4c(cc3Br)OCO4)c(=O)n2C1c1cc(OC)ccc1OC (centres undefined)
101	Oc1oc(-c2ccc(Br)cc2)nc1C=Nc1ccc(F)cc1
104	CCOC(=O)C1=C(C)NC2=C(C(=O)C(C(=O)OCC)C(c3ccccc3OC)C2)C1c1cc(OC)ccc1OC (centres undefined)
112	CCc1ccc(NC(=O)c2cc(S(=O)(=O)NC3CCCCC3)ccc2F)cc1
116	COc1cccc(N/C(SCc2cccc(F)c2)=C(/C#N)C(N)=O)c1
110	NS(=O)(=O)c1ccc(N2C(=O)c3ccc([N+](=O)[O-])c4c([N+](=O)[O-])ccc(c34)C2=O)cc1
111	CCOC(=O)C1=C(O)/C(=C/c2ccccc2)SC1=Nc1ccc(OC)cc1
110	O=S(=O)(NCCSCSc1nnc(SCCNS(=O)(=O)c2ccccc2)s1)c1ccccc1
102	CCOC(=O)c1sc2nc(CC(=O)OC)nc(NCCOC)c2c1C
98	CC(O)CNc1nc(Nc2ccc3c(c2)OCO3)c2cnn(-c3ccccc3)c2n1 (centres undefined)
113	O=C(NN1S(=O)(=O)c2ccccc2S1(=O)=O)c1cccc(F)c1
101	CS(=O)(=O)Nc1ccc(-c2noc(Cc3ccccc3Br)n2)cc1
105	Cn1nc(C(=O)N2CCCC(C(=O)NC3CC3)C2)c2c1CCN(C(=O)c1ccc(Cl)cc1)C2 (centres undefined)
99	COc1cc(OC)cc(C(=O)Nc2c(C)nc3scc(C)n3c2=O)c1
104	O=C1c2c(Cl)c(Cl)c(Cl)c(Cl)c2C(=O)N1C1C(=O)N(c2ccc(Cl)cc2[N+](=O)[O-])C1c1cccs1 (centres undefined)
103	CC(C)n1c(SCC(=O)c2ccc3c(c2)OCCO3)nnc1-c1ccc2c(c1)OCCCO2
104	Cc1c(-c2nc(C3CCC3)no2)c(S(=O)(=O)NC2CCCC2)c(C)n1C
108	Cc1ccc(-c2ccc(-n3nc(C)c(S(=O)(=O)Nc4ccccc4)c3C)nn2)cc1
112	CC1=C(C(=O)OCCc2ccccc2)C(c2cccc(Cl)c2)CC(=O)N1 (centres undefined)

Additional records:
GIV-Gai inh	structure
103	CCSc1c(CC(C)C)cnc2c1c(=O)n(C)c(=O)n2C
104	COc1ccc(-n2nnnc2C2(N3CCCC3)CCCC2)cc1
100	Cc1ncc2c(n1)CCN(S(=O)(=O)c1ccc(Br)cc1)C2
109	CCCCNC(=O)CSc1nc(NCCCC)c2ccccc2n1
116	Cc1ccc(C)c(NC(=O)CSC2=C(C#N)C(c3ccc(Cl)cc3Cl)CC(=O)N2)c1 (centres undefined)
109	COC(=O)CSc1nnc(-c2ccccc2)c(-c2ccccc2)n1
102	Cc1sc(-c2noc(C(=O)N3CCOCC3)n2)cc1S(=O)(=O)NC1CCCC1
105	COc1ccc(NC(=O)c2cc3cccc(OC)c3oc2=Nc2ccc(C(=O)O)cc2)cc1
100	COc1cccc(-c2cncc(C(=O)NCc3ccc(Br)cc3)c2)c1
106	O=S(=O)(c1ccc(Cl)cc1)N1CCn2cccc2C1c1ccc(Br)cc1 (centres undefined)
108	COCCOC(=O)C1=C(C)NC(=O)NC1c1cn(-c2ccccc2)nc1-c1cccs1 (centres undefined)
107	CCOC(=O)N1CCN(S(=O)(=O)c2cccc3nsnc23)CC1
107	c1ccc(C2=NC(c3ccccc3)c3c(ccc4ccccc34)N2)cc1 (centres undefined)
106	COc1ccc(Cl)cc1S(=O)(=O)N1CCC(n2cnc3ccc(F)cc3c2=O)CC1
112	COc1ccc(N2C(=O)c3ccccc3NC2c2ccc(O)c(OC)c2)cc1 (centres undefined)
104	Cc1ccc(C2CCCCCN2C(=O)NCC(C)C)s1 (centres undefined)
101	Cc1ccccc1CSc1nc2c(sc(=S)n2-c2ccccc2C)c2nc3ccccc3n12
107	Cn1c(NC(=O)c2cccc(Cl)c2)cc(=O)n(C)c1=O
100	O=S(=O)(c1ccc(F)c(F)c1)N1CCC(c2noc(-c3ccc(F)cc3)n2)CC1
120	O=[N+]([O-])c1ccccc1N=c1oc2ccc3ccccc3c2cc1-c1nc2ccccc2s1
105	CC(=O)C1=C(O)C(=O)N(c2ccccc2)C1c1ccc2c(c1)OCO2 (centres undefined)
110	N#CC1=C(N)Oc2n[nH]c(-c3ccc([N+](=O)[O-])cc3)c2C12C(=O)Nc1ccccc12 (centres undefined)
102	O=C(c1cc(S(=O)(=O)N2CCCC2)ccc1Cl)N1CCN(c2ccccc2F)CC1
149	N#CC1=C(N)Oc2c(C=Nc3ccccc3)ccc(O)c2C1c1cccc([N+](=O)[O-])c1 (centres undefined)
109	CCOC(=O)c1[nH]c(C)c(CCC(=O)N2CCCC(C(=O)NCCCN3CCCC3=O)C2)c1C (centres undefined)
102	N#CC1=CN(c2ccc(F)c(F)c2)c2ccc(F)cc2S1(=O)=O
100	CC1(C)CC2(CCO1)OC(=O)CC2C(=O)O (centres undefined)
112	Cc1ccc(N2C(=O)C3C(c4cccc(Br)c4)OC4(C(=O)c5ccccc5C4=O)C3C2=O)cc1Cl (centres undefined)
107	CC(=O)Oc1ccc2c(c1)OC(c1ccccc1)CC21CC(C)(C)NC(=S)N1 (centres undefined)
102	COc1cccc(C2C(C(=O)Nc3cccc(F)c3)=C(C)NC3=C2C(=O)CC(C)(C)C3)c1OC (centres undefined)

Screens deposited in PubChem by ICCB-Longwood Screening Facility, Harvard Medical School.
